Screening results (PubChem BioAssay)
nsP2pro inh = Primary qHTS for inhibitors of NSP2Pro chikungunya virus (CHIKV); Polyprotein P1234 (Chikungunya virus (strain S27-African prototype)), Q8JUX6; FRET peptide cleavage, nsP2pro, fluorescence 1 h; Potency, µM (titrated, usually from 24.9 µM), for inactives: at the highest dose activity change, negative = inhibition, usual class: inhibitors; 1.1% of 31,000 active; active means well fitted inhibition curve with a large enough effect; inconclusive means small, poorly fitted or top-dose-only effect; inactive means no such curve, though single readings can be large or run the other way; also: nearly all actives have a fitted effect of over 60% in size; a reference inhibitor and vehicle were the controls
* marks the source's active call; other numbers are inactive results; i = inactive; u = inconclusive; & = joins results of further samples; [ ] = dose if it differs, or a comment. % is scaled to controls: 0 for no effect and ±100 for the full control effect; potency is read from the fitted curve at half-maximal effect. This is a subset, so the mix of outcomes need not match the whole.

SMILES	nsP2pro inh
COc1ccc(C2C(=O)c3ccccc3C2=O)cc1	0%
Cc1occc1C(=O)N1CCC(CCC(=O)N2CCN(c3ccccc3)CC2)CC1	0%
Cn1c(=O)c2c(nc(OC3CCN(C(=O)C4CC4)CC3)n2CCC(C)(C)C)n(C)c1=O	-3%
CNc1ccc(C)cc1C(=O)N1CCN(C)C2(CCN(C)CC2)C1	-4%
Cc1ccc(C(=O)COC(=O)c2cccc(NC(=O)c3ccc(Cl)cc3Cl)c2)cc1	-2%
Cc1cccc(/C=C/c2onc(C)c2S(=O)(=O)N2CCC(C(=O)N3CCCCC3)CC2)c1	-6%
CC1(C)O[C@@H]2C[C@H]3[C@@H]4CCC5=CC(=O)C=C[C@]5(C)[C@@]4(F)[C@@H](O)C[C@]3(C)[C@]2(C(=O)CO)O1	21%
COCC(=O)N1CCN(Cc2ccccc2-c2ccc(C)c(Cl)c2)CC1	-1%
Cc1ccc(S(=O)(=O)N2CCN(c3nc(-c4ccco4)nc4ccccc34)CC2)cc1	-18%
COc1cccc(N2CCN(S(=O)(=O)c3ccc(-n4cnnn4)cc3)CC2)c1	-21%
CCC(C)/C=C(C)/C=C/C1=CC2=C(Cl)C(=O)C(C)(OC(C)=O)C(=O)C2=CN1C(CCCN=C(N)N)C(=O)O (stereo unspecified)	-24%[10 µM]
COc1ccc(CCN(CC2CCN(C)CC2)C(=O)C2CC23CCC3)cc1 (stereo unspecified)	1%
Cc1ccc2c(c1)C(Cc1ccccc1F)C(=O)N2 (stereo unspecified)	-6%
COc1ccc(-c2cc(-c3ccc4c(c3)NC(=O)CO4)nc3c2COc2ccc(C)cc2-3)cc1	-18%
Cc1nc2nc(SCC(=O)N(C)Cc3ccccc3)nn2c(C)c1Cc1ccccc1Cl	-14%

Another view of some results above.
structure | nsP2pro inh
COCC(=O)N1CCN(Cc2ccccc2-c2ccc(C)c(Cl)c2)CC1 | -1%
Cc1ccc(S(=O)(=O)N2CCN(c3nc(-c4ccco4)nc4ccccc34)CC2)cc1 | -18%
COc1cccc(N2CCN(S(=O)(=O)c3ccc(-n4cnnn4)cc3)CC2)c1 | -21%
CCC(C)/C=C(C)/C=C/C1=CC2=C(Cl)C(=O)C(C)(OC(C)=O)C(=O)C2=CN1C(CCCN=C(N)N)C(=O)O (stereo unspecified) | -24%[10 µM]
COc1ccc(CCN(CC2CCN(C)CC2)C(=O)C2CC23CCC3)cc1 (stereo unspecified) | 1%
Cc1ccc2c(c1)C(Cc1ccccc1F)C(=O)N2 (stereo unspecified) | -6%

The results go on:
SMILES	nsP2pro inh
O=C(Nc1ccc(F)cc1)[C@H](CSCc1ccccc1)N1Cc2ccccc2C1=O	-18%
O=[S+]([O-])(Nc1nccs1)c1ccc(NCc2cc(Cl)cc(Br)c2O)cc1	i
CO[C@@H]1[C@H](O)[C@@H](O[C@@H]2C[C@H]3CC[C@@H]4C(CC[C@]5(C)[C@@H](C6=CC(=O)OC6)CC[C@]45O)[C@@]3(C)[C@H](O)C2)O[C@H](C)[C@@H]1O (stereo partly specified)	24%[10 µM]
CCc1nc2c(c(NCCn3nc(C)c(CC)c3C)n1)CCNCC2	-4%
CC/C(=C(/CC)c1ccc(O)c(CN(CC)CC)c1)c1ccc(O)c(CN(CC)CC)c1	-10%
COc1ccccc1CN1CCNC(=O)C1=O	-8%
CN1CCN(CCNC(=O)c2cc(-c3ccccc3)cn2C)CC1	-2%
COc1ccc(CCCN2C(=O)O[C@@H]3CN(c4nc(C)cc(C)n4)C[C@@H]32)cc1	2%
CC(=O)N(O)CCCCCNC(=O)CCC(=O)N(O)CCCCCNC(=O)CCC(=O)N(O)CCCCCN	2%
Cc1cnc(C2CCC2)n1C1CCN(C(=O)CCC2CCCC2)CC1	-2%
COc1ccc(N2CCN(S(=O)(=O)c3ccc4c(c3)CC(C)N4C(C)=O)CC2)cc1 (stereo unspecified)	-21%
CN(C)c1nc2c(Br)c(Br)c(Br)c(Br)c2n1CC(=O)O	-10%
CCN(CC)Cc1cccc(/C=C/c2nc3ccc(F)cc3c(=O)n2-c2ccccc2Cl)n1	37%
O=C(NCC(c1ccc2c(c1)OCO2)N1CCN(c2ccccc2)CC1)C(=O)Nc1ccccc1F (stereo unspecified)	-8%
O=C1N(Cc2cccnc2)C[C@H]2CN(C3CCC3)CCN12	i
Cn1c(=O)n(-c2ccc(F)c(Cl)c2)c(=O)c2sc3ccccc3c21	-21%
N#CC(c1ccnc(OCc2ccc(CN3CCOCC3)cc2)n1)c1nc2ccccc2s1 (stereo unspecified)	65%[activator]
Cc1nn2c(=O)cc(N3CCNCC3)nc2s1	-5%
Nc1ccccc1C(=O)CC(N)C(=O)O (stereo unspecified)	-14%
CCc1ccccc1NS(=O)(=O)c1ccc(NC(=O)N2CCCC2)cc1	-5%
CCN1C(=O)C(Cc2nc3ccccc3c(=O)n2C)c2cc(C)ccc21 (stereo unspecified)	-17%
CCCN(CCC)C(=O)Cn1c(=O)n(-c2ccc(OC)cc2OC)c(=O)c2c3c(sc21)CCC3	-17%
O=C(Cn1nc(C2CCCCC2)ccc1=O)NCCc1ccccc1	i
CC(=O)N1CCc2cc(Br)cc(S(=O)(=O)NCCc3ccc(Cl)cc3)c21	-6%
CNC[C@H](O)c1ccc(O)c(O)c1	u
O=C(Nc1cc(Cl)cc(Cl)c1)c1ccc(F)c(S(=O)(=O)N2CCCC2)c1	-8%
CCN1c2ccccc2-c2nc(SCC(=O)NCc3ccc(C)cc3)ncc2S1(=O)=O	-25%
COc1ccc(-c2nc(CN3C(=O)CN=C(c4ccccc4)c4cc(Cl)ccc43)c(C)o2)cc1	-5%
Cc1ccc(-c2nccc(=O)n2CC(=O)N(C)C(C)c2ccco2)cc1 (stereo unspecified)	u
O=S(=O)(c1ccc(F)cc1)N1CCC(Oc2ccc(-c3noc(C4CC4)n3)cc2)C1 (stereo unspecified)	i

A section from the list above, as a working copy:
SMILES	nsP2pro inh
CNC[C@H](O)c1ccc(O)c(O)c1	u
O=C(Nc1cc(Cl)cc(Cl)c1)c1ccc(F)c(S(=O)(=O)N2CCCC2)c1	-8%
CCN1c2ccccc2-c2nc(SCC(=O)NCc3ccc(C)cc3)ncc2S1(=O)=O	-25%
COc1ccc(-c2nc(CN3C(=O)CN=C(c4ccccc4)c4cc(Cl)ccc43)c(C)o2)cc1	-5%
Cc1ccc(-c2nccc(=O)n2CC(=O)N(C)C(C)c2ccco2)cc1 (stereo unspecified)	u
O=S(=O)(c1ccc(F)cc1)N1CCC(Oc2ccc(-c3noc(C4CC4)n3)cc2)C1 (stereo unspecified)	i

Arranged by heavy-atom count (smallest number first): 3 of the compounds above
SMILES	nsP2pro inh
CNc1ccc(C)cc1C(=O)N1CCN(C)C2(CCN(C)CC2)C1	-4%
COc1ccc(CCCN2C(=O)O[C@@H]3CN(c4nc(C)cc(C)n4)C[C@@H]32)cc1	2%
O=C(NCC(c1ccc2c(c1)OCO2)N1CCN(c2ccccc2)CC1)C(=O)Nc1ccccc1F (stereo unspecified)	-8%

(more compounds)
SMILES	nsP2pro inh
CC(=O)NC1CCN(Cc2cn(-c3ccccc3F)nc2-c2cc(C)sc2C)C1 (stereo unspecified)	-9%
CCOc1ccc(/C=C/c2nc(C#N)c(NC(C)c3ccccc3)o2)cc1 (stereo unspecified)	-8%
O=C(NC1CCCC1)c1ccc2c(c1)n(Cc1cccc(F)c1)c(=O)c1ccnn12	-7%
Cc1cc(NC(=O)Nc2nnc(-c3ccncc3)s2)ccc1Cl	i
C=C1CCC2(OC1)OC1CC3C4CC=C5CC(O)CC(O[C@@H]6OC[C@@H](O)[C@H](O)[C@H]6O)C5(C)C4CCC3(C)C1(O)C2C (stereo partly specified)	-14%[10 µM]
CCS(=O)(=O)N1CC(=O)N(c2ccc(Cl)cc2)C(C)(C(=O)NC2CCCCC2)C1 (stereo unspecified)	-19%
O=C1NC(=O)c2c1c1c3ccccc3n3c1c1c2c2ccccc2n1C1CCC3O1	-12%
COc1ccc(C(=O)CCC(=O)Nc2ccc(F)cc2F)cc1	-2%
COc1ccccc1C(=O)N1c2ccccc2C(C)(c2ccc(Cl)cc2)CC1(C)C (stereo unspecified)	-18%
CCC(C(=O)NCc1ccccc1)n1nc(C)c2sc3ccccc3c2c1=O (stereo unspecified)	-16%
CNC(=O)[C@@H](CC(C)C)N1CCC[C@H]1C(=O)N1CCN(C)CC1	-23%[39.2 µM]
CCc1ccccc1NC(=O)C1CCCN(C(=O)c2cnn(-c3ccccc3)c2-n2cccc2)C1 (stereo unspecified)	-11%
COCC(=O)N1CC(C(=O)N2CCCCC2)[C@H](c2ccncc2)C1 (stereo partly specified)	i
O=C(N[C@H]1CCOC[C@H]1C1CCOCC1)c1ccoc1	-5%
CCn1c(=O)c2sccc2n2c(CCC(=O)N3CCN(c4ccc(C(C)=O)cc4)CC3)nnc12	-15%

The last three compounds of the part above open the next one.
SMILES	nsP2pro inh
COCC(=O)N1CC(C(=O)N2CCCCC2)[C@H](c2ccncc2)C1 (stereo partly specified)	i
O=C(N[C@H]1CCOC[C@H]1C1CCOCC1)c1ccoc1	-5%
CCn1c(=O)c2sccc2n2c(CCC(=O)N3CCN(c4ccc(C(C)=O)cc4)CC3)nnc12	-15%
CC1(C)C2CC[C@@]34CC(CC[C@H]3[C@]2(C)CC[C@@H]1O[C@@H]1O[C@H](CO)[C@@H](O)[C@H](O)[C@H]1O)[C@](C)(O)C4 (stereo partly specified)	u
COC(=O)CCSCc1ccc(-c2onc(C)c2NC(=O)OC(C)c2ccccc2Cl)cc1 (stereo unspecified)	-1%
NC(Cc1c[nH]c2ccccc12)C(=O)NC(CCC(=O)O)C(=O)O (stereo unspecified)	-15%
CCCOc1ccc(C2c3c(-c4ccccc4O)n[nH]c3C(=O)N2CCc2ccccc2)cc1OCC (stereo unspecified)	-13%
COc1ccc(C(=O)CC2(O)C(=O)N(Cc3cccc(C(F)(F)F)c3)c3ccccc32)cc1 (stereo unspecified)	-2%
O=c1cc(-c2ccc(O)cc2)oc2cc(OC3OC(CO)C(O)C(O)C3O)c(C3OC(CO)C(O)C(O)C3O)c(O)c12 (stereo unspecified)	-2%[10 µM]
Cc1ccc(C)c(N2CCN(C(=O)c3cccn3-c3nnc(N4CCCCC4)s3)CC2)c1	-33%
CCOc1cc(-c2nnc(SCC(=O)Nc3ccc(F)c(F)c3)nc2-c2ccc(OC)c(OCC)c2)ccc1OC	u
CCCCCCCCCCCCCCCCO	-24%&11%
O=CC(O)C(O)C(O)CO (stereo unspecified)	9%
